UCH37 DUB inh = inhibitors of human deubiquitinating enzyme UCH37; Q9Y5K5; purified proteasome/UCH37, Ub-AMC cleavage fluorescence; inhibition, % (test concentration not listed); 330,000 compounds, 0.33% hits; AID 588478;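 active = mean of two replicates above 20%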;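 also: 0% = compound-free wells with enzyme and 100% = wells lacking proteasome; stock transfer was 100 nL into about 20 µL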
Target sequence (Q9Y5K5 whole entry, looked up): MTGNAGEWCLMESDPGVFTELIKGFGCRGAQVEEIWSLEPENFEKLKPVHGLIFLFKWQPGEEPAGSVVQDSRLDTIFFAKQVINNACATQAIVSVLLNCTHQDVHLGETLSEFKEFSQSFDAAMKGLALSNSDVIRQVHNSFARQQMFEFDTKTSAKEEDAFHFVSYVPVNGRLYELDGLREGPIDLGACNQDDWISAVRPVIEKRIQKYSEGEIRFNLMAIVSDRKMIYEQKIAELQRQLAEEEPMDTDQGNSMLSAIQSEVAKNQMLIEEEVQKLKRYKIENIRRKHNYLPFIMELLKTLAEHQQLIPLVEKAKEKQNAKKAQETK
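Material: human UCH37 enzyme supplied as purified proteasome complex. Measure: % inhibition of Ub-AMC cleavage fluorescence. Medium: pH 7.4 Tris-HCl (50 mM) with ovalbumin, ATP-MgCl2, DTT. Times: 30 min preincubation with enzyme, 25 min cleavage at room temperature. Detection: AMC fluorescence intensity at 355/460 nm.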
Ecoli growth = E. coli growth inhibition; Escherichia coli growth, OD600, 23 h; active compounds read low; OD600 absorbance (no concentration beside the values); 330,000 compounds, 0.21% hits; AID 1053175;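 active = OD600 absorbance below the run mean of sample wells minus 3.6 SD, in any replicate, cut at about 0.56 in these data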;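 also: stock transfer was 300 nL into about 60 µL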
LANA-H2A inh = blocks KSHV LANA binding to histone H2A/H2B | inhibition, % (test concentration not listed) | cell-free LANA-H2A/H2B peptide, fluorescence polarization | Q9QR71 | 320,000 compounds, 0.6% hits; in the data active = inhibition mostly above about 10%, no sharp cut-off; inactive = mostly below about 6.7%;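 also: stock transfer was 7.5 nL into about 10 µL; 0% = median of vehicle wells and 100% = median of positive control wells; one replicate is shown; the record names a cut of 25% in any replicate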
HNF4A DNA FP = change in binding of human HNF4 alpha to DNA; activity change, % at 10 µM; 360,000 compounds, 0.3% hits; P41235; AID 1224865; HNF4a-FITC DNA binding, fluorescence polarization, 1 h; in the data active = activity change above about 30%, passing the limit was not always enough;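 also: controls were the assay level and a saturating level of protein; the project sought stronger binding though the title names inhibitors; some compounds called inactive have numbers as strong as hits; positive values seem to mean higher polarization but the record does not say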
ALR inh = human ALR oxidase inhibition via reduced H2O2; P55789; purified ALR, DTT oxidation, H2O2 HRP-luminol luminescence; inhibition, % (no concentration beside the values); 290,000 compounds, 3.8% hits;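 active = mean and each replicate at 75% or more; inconclusive = only one of the two met; inactive = neither met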;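 also: stock transfer was 7.5 nL into about 7.5 µL; 0% = neutral wells and 100% = wells with inactivated enzyme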
FGF22 binding = FGF22 (human) thermal shift binding | calls only at 9.99 µM | AID 651658 | 340,000 compounds, 1.5% hits | recombinant FGF22 thermal shift, SYPRO orange fluorescence; percent of sucrose octasulfate shift, DMSO zero | Q9HCT0;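 active = melting point raised past a set limit in the mean and every replicate; inconclusive = no clear call; three in four hits are not shown here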
Target sequence (Q9HCT0 whole entry, looked up): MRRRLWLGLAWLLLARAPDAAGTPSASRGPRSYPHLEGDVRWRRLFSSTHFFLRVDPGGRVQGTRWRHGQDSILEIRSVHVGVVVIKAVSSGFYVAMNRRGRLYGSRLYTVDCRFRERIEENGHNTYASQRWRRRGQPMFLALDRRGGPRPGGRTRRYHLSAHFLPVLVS
B2AR ag = agonists of human beta-2 adrenergic receptor inducing internalization; AID 504454; 340,000 compounds, 0.43% hits; P07550; Am2.2-beta2AR cells, FAP receptor internalization, flow cytometry; reference of the scale not given here; response, % (concentration not given with the values);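 active = response above a set limit, near 3 SD of response in nonfluorescent compounds, cut at about 42% in these data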;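 also: stock transfer was 100 nL into about 11 µL; a reference agonist was the positive control; negative values mostly stem from fluorescent compounds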
Target sequence (P07550 whole entry, looked up): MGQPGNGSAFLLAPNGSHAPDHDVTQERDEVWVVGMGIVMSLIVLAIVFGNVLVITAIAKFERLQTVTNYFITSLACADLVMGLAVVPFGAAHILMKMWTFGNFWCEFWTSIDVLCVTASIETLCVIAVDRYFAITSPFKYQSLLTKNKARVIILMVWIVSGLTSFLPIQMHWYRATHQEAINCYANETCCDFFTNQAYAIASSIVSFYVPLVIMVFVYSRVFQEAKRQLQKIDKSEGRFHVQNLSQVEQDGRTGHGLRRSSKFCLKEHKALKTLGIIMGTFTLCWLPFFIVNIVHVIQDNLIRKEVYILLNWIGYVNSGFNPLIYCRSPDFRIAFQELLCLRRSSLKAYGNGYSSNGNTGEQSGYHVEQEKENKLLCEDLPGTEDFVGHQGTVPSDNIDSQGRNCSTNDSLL
An asterisk follows results filed as active; i = inactive; u = inconclusive; x = no result given. These rows are one share of the data; the hit share may differ from the screen's.

SMILES | UCH37 DUB inh | Ecoli growth | LANA-H2A inh | HNF4A DNA FP | ALR inh | FGF22 binding | B2AR ag
Cc1ccc(S(=O)(=O)N2CCOCC2)cc1NC(=O)c1cc2c(s1)CCC2 | 0.6 | 0.69 | 2.0 | 1.0 | -4 | x | 13
CC1(C)OC(=O)N(c2cccnc2)C1(C)O (centres undefined) | 4.1 | 0.7 | -2.1 | -3.7 | -15 | x | 5
CC1CCN(C(=O)/C(=C\c2ccccc2F)NC(=O)c2ccccc2)CC1 | 0.6 | 0.68 | 1.5 | 3.3 | x | i | 14
O=C(c1ccco1)N1CCN(C(=O)c2ccc(COc3ccc(F)cc3)o2)CC1 | 5.9 | 0.72 | -0.9 | -0.1 | 2 | x | 6
CSCCC(NS(=O)(=O)c1ccc(C)c(C(=O)O)c1)C(=O)O (centres undefined) | -1.5 | 0.71 | 2.4 | -1.7 | -3 | i | 1
O=C1CCC(C(=O)N(Cc2cccs2)C2(C(=O)NC3CCCCC3)CCCCC2)N1 (centres undefined) | 2.5 | 0.7 | 2.1 | 1.6 | 75 | i | -13
COc1ccc(CN2C(=O)CS/C2=N/N=C/c2cccs2)cc1 | x | x | -1.6 | 0.8 | -4 | i | -8
Cc1cccc(N(C(=O)CNC(=O)c2ccco2)C(C(=O)NC2CCCCC2)c2cccnc2)c1 (centres undefined) | -0.5 | 0.68 | -4.6 | -2.9 | -4 | i | -2
CC(=O)Nc1ccc2nc(C)n(Cc3ccc(Cl)cc3)c(=O)c2c1 | 1.2 | 0.7 | 1.2 | -0.3 | -14 | x | -2
CCC1(c2ccc(F)cc2)NC(=O)N(CC(=O)N2CCc3ccccc3C2)C1=O (centres undefined) | 1.1 | 0.68 | -1.5 | 0.7 | x | i | -2
Cc1ccc(-c2nc(CS(=O)CC(=O)NCc3ccccn3)c(C)o2)cc1 (centres undefined) | 1.1 | 0.79 | 4.0 | -0.2 | 100* | i | -5
C=CCSC1=NC(N)=C(C#N)C2(CCCCC2)C1C(N)=O (centres undefined) | 7.2 | 0.74 | 5.8 | 2.2 | 6 | x | 3
COc1ccccc1CN(C)C(=O)COC(=O)c1c(C)noc1C | 2.5 | 0.65 | 0.7 | -0.8 | -1 | i | 5
N#Cc1c2n(c(=S)n(-c3ccccc3[N+](=O)[O-])c1=O)CCCCC2 | 2.5 | 0.74 | -5.8 | 1.6 | -1 | x | 0
O=C(NC1CCCCC1)C(Cc1ccccc1)N1C(=O)C2C3CCC(C3)C2C1=O (centres undefined) | 1.6 | 0.72 | 0.1 | 5.1 | -2 | x | -3
CC(C)(C)NC(=O)Nc1ccc(Cn2cc(C(F)(F)F)ccc2=O)cc1 | 2.8 | 0.66 | -4.4 | 0.6 | -2 | i | -1
COCCNC(=S)N1CCC(C(=O)c2ccc(F)cc2)CC1 | -0.1 | 0.61 | x | -5.4 | x | i | 7
Cc1cccc(N2CCN(c3cccc(C)c3)C2c2cccnc2)c1 | 2.9 | 0.67 | 2.3 | 1.0 | 95* | x | 0
Cc1cccc(OCC(=O)OCC(=O)NCC2CCCO2)c1C (centres undefined) | -2.3 | 0.68 | x | 3.9 | x | i | -6
C1CCC(C23CC4CC(CC(C4)C2)C3)NC1 (centres undefined) | 0.9 | 0.71 | 2.4 | -2.2 | x | x | 7
S=c1[nH]nc(COc2ccccc2)n1/N=C/C(Cl)=C/c1ccccc1 | x | x | 1.6 | 0.7 | 4 | x | 0
O=C(N/N=C/c1ccc([N+](=O)[O-])o1)c1ccc(O)cc1 | x | x | 4.5 | -2.3 | x | i | 10
CN(CC(=O)Nc1ccccc1C(=O)NC1CC1)Cc1cccs1 | 0.6 | 0.69 | 5.7 | 1.0 | -1 | i | -9
N/C(=N\OC(=O)COc1ccccc1)c1ccc(Cl)cc1 | 6.3 | 0.7 | 4.4 | 1.3 | -2 | i | -8
CCCN(CCC)CCNC(=O)Cn1cnc2sc(C)c(S(=O)(=O)N3CCOCC3)c2c1=O | 5.2 | 0.69 | -2.0 | 1.4 | x | x | -2
COc1cc(CCN2C(=O)c3cccc4cccc(c34)C2=O)c(S(=O)(=O)N2CCCCCC2)cc1OC | -45 | 0.68 | -5.2 | -1.9 | 15 | i | 11
C=CCc1ccc(OCCCCCN2CCOCC2)c(OC)c1 | 4.4 | 0.72 | -3.1 | 0.4 | -6 | x | 3
Cc1ccc(S(=O)(=O)NCC(=O)OCC(=O)N2CCc3ccccc32)cc1 | -0.1 | 0.69 | -0.9 | -1.7 | -5 | x | 20
CC(=O)c1cccc(NC(=S)NC(=O)c2cncc(Br)c2)c1 | 1.0 | 0.62 | 2.5 | 1.0 | 73 | i | 2
O=C(NCc1ccc(F)cc1)c1cc(S(=O)(=O)N2CCCCC2)c[nH]1 | 3.9 | 0.71 | -2.2 | -4.2 | -3 | i | -5
Cc1ccc2cc(/C=N/NC(=O)c3ccccc3O)c(Cl)nc2c1 | x | x | -3.0 | 1.2 | 10 | x | -1
CN(CC(=O)NCc1ccccc1)Cc1cccc(F)c1 | 2.0 | 0.68 | 0.8 | -0.6 | 9 | i | -5
CCCCCC(=O)Nc1ccc(C(=O)CN2C(=O)NC3(CCCCCC3)C2=O)cc1 | 1.3 | 0.69 | -2.6 | -5.4 | -28 | i | 14
CCN(C(=O)CSc1nccc(=O)[nH]1)C1CCCCC1 | 2.0 | 0.68 | 1.2 | 3.8 | x | i | 3
O=C1CN(C(=O)/C=C/c2ccc(Br)cc2)CCN1 | 1.3 | 0.68 | 2.7 | -6.6 | 3 | i | -2
CC1(c2ccc(Cl)cc2)NC(=O)N(CC(=O)NC(=O)NCc2ccco2)C1=O (centres undefined) | 0.5 | 0.68 | 0.0 | 0.9 | 3 | x | -13
CCCC(=O)N1CCN(c2nnc(-c3ccc(C)cc3)c3ccccc23)CC1 | 2.5 | 0.69 | -2.2 | 0.8 | -9 | i | 3
CCCC(=O)Nc1sc2c(c1C(=O)OC)C(C(=O)OC)CC2 (centres undefined) | 0.3 | 0.73 | 2.0 | 2.7 | -16 | x | -20
c1coc(CNc2nc(-c3ccncc3)cs2)c1 | 1.3 | 0.67 | 4.1 | 2.6 | x | x | -14
CC(C)[C@H]1COCCS(=O)(=O)N1Cc1ccccc1-c1ccc(F)cc1 | 3.1 | 0.7 | x | -3.4 | x | i | -5
COc1ccc(C(=O)NCC(=O)OCC(=O)N2N=C(c3ccc(Cl)cc3)CC2c2ccco2)cc1OC (centres undefined) | 4.9 | 0.72 | 2.8 | 0.3 | -4 | x | 8
Nc1ccccc1OCP(=O)(c1ccccc1)c1ccccc1 | 1.0 | 0.69 | 0.1 | 1.8 | 96* | i | 7
CCOc1ccc2c(c1)C(NC(C)=O)C(=O)N2CCN1CCOCC1 (centres undefined) | 12 | 0.67 | 1.0 | -1.5 | 0 | i | -9
CCCN1C2CCCC1CC(NC(=O)c1ccc(OC)cc1)C2 (centres undefined) | 1.3 | 0.7 | 1.7 | 1.4 | x | i | -10
CC(C)=NNc1nc(-c2ccc([N+](=O)[O-])cc2)cs1 | -0.3 | 0.72 | 0.5 | -2.0 | u | i | 9
O=C(C1CCC(CNS(=O)(=O)c2cccc3nsnc23)CC1)N1CC=C(c2ccccc2)CC1 (centres undefined) | x | x | 2.7 | -1.0 | 1 | i | 7
C#Cc1ccc([C@H]2C=C(C(=O)N3CCN(Cc4ccc5c(c4)OCO5)CC3)O[C@@H](OCC)[C@@H]2CCCO)cc1 | 5.0 | x | 2.3 | -1.6 | -3 | i | 3
COc1cc(OC)c2c(-c3ccccc3)cc(=O)oc2c1C(CCN1CCCCC1)c1ccc(N(C)C)cc1 (centres undefined) | 3.2 | 0.63 | -6.9 | -2.6 | 70 | x | 10
CCOc1ccc(Br)cc1S(=O)(=O)Nc1cccnc1 | 2.9 | 0.73 | 2.0 | 0.5 | 0 | i | -1
Fc1ccc(C2c3[nH]c4ccccc4c3CCN2Cc2cccn2-c2ncccn2)cc1 (centres undefined) | 0.1 | 0.68 | 4.2 | -4.2 | -2 | i | 1
COc1ccc(OC)c2c(C)cc(N3CCCN(C)CC3)nc12 | -68 | 0.65 | -3.3 | -4.2 | 98* | x | 2
CCOc1ccc(NS(=O)(=O)c2cc(NC(=O)CCNC(=O)c3ccco3)ccc2OC)cc1 | -1.9 | 0.66 | x | -1.1 | x | i | -3
CCN1CCN(CCCNC(=O)c2ccc3c(c2)N(Cc2ccc(C)cc2)CCS3)CC1 | i | 0.68 | 2.8 | 0.1 | 99* | x | 12
Cc1ccc(S(=O)(=O)N(C)c2c(C)ccc(S(=O)(=O)Nc3ccncc3)c2C)cc1 | 1.3 | 0.7 | 0.6 | 0.8 | -20 | i | -2
Cc1cc(Br)cc(Cl)c1OC(=O)c1cnccn1 | 3.8 | 0.71 | -4.2 | -3.8 | 6 | i | -3
Cc1ccc(OCCCn2cc(C#N)c3ccccc32)cc1 | 0.3 | 0.72 | 3.3 | -5.2 | -5 | x | 6
CCOc1ccc(-c2n[nH]c(C)c2-c2ccccc2OC)c(O)c1 | 4.2 | 0.72 | 14 | 2.8 | 3 | x | -11
Cc1cc(C)c(NC(=O)CSc2nncn2-c2cccnc2)c(C)c1 | 2.1 | 0.65 | 1.9 | 0.2 | -12 | i | -8
C=CCOc1cccc(C(=O)N2CCCC(CCC(=O)NCc3ccccc3F)C2)c1 (centres undefined) | -0.8 | 0.67 | 2.1 | 0.3 | 0 | i | -8
C=CCN(CC=C)C(=O)c1cc2ccccc2c(=O)o1 | 3.9 | 0.64 | 4.6 | -0.1 | -24 | x | -6

Single records, as listed above.
CCOc1ccc(NS(=O)(=O)c2cc(NC(=O)CCNC(=O)c3ccco3)ccc2OC)cc1 reads UCH37 DUB inh: -1.9; Ecoli growth: 0.66; LANA-H2A inh: x; HNF4A DNA FP: -1.1; ALR inh: x; FGF22 binding: i; B2AR ag: -3
CCOc1ccc(Br)cc1S(=O)(=O)Nc1cccnc1 reads UCH37 DUB inh: 2.9; Ecoli growth: 0.73; LANA-H2A inh: 2.0; HNF4A DNA FP: 0.5; ALR inh: 0; FGF22 binding: i; B2AR ag: -1
Cc1ccc(OCCCn2cc(C#N)c3ccccc32)cc1 reads UCH37 DUB inh: 0.3; Ecoli growth: 0.72; LANA-H2A inh: 3.3; HNF4A DNA FP: -5.2; ALR inh: -5; FGF22 binding: x; B2AR ag: 6

The results go on.
SMILES | UCH37 DUB inh | Ecoli growth | LANA-H2A inh | HNF4A DNA FP | ALR inh | FGF22 binding | B2AR ag
CC(C)(C)c1ccc(-c2nnc(SCCN3C(=O)c4ccccc4C3=O)o2)cc1 | 3.1 | 0.8 | 2.0 | 0.6 | 33 | x | -3
Cc1ccccc1NC(=O)c1ccccc1NC(=O)c1ccccc1F | 2.4 | 0.69 | 4.9 | 2.4 | -5 | i | -10
O=C(O)C1CCCCC1C(=O)NCCC(c1ccccc1)c1ccccc1 (centres undefined) | 2.7 | 0.71 | -1.9 | 1.6 | 1 | x | 2
Cc1cc(C)n(C(=O)/C(C#N)=N/Nc2cc(Cl)cc(Cl)c2)n1 | x | x | 0.7 | 2.0 | -12 | x | 13
O=C(O)COc1ccc(/C=N/O)cc1Br | x | x | -3.3 | -2.3 | -2 | i | 1
CN(c1ccc(C(=O)Nc2cccnc2)cc1)S(=O)(=O)c1ccccc1 | 4.5 | 0.66 | -0.6 | 2.2 | 1 | i | -4
CCNC(=S)N1CCN(CCN=CC2=C(O)CC(c3cccs3)CC2=O)CC1 (centres undefined) | 5.5 | 0.7 | -0.3 | 2.9 | -7 | x | -15
O=C(COC(=O)Cc1ccc(Br)cc1)NC1CCCCC1 | 1.8 | 0.7 | -6.6 | 6.9 | 3 | i | -1
COc1ccc(N2CCN(C(=O)CCNC(=O)c3ccc(Br)cc3)CC2)cc1 | 1.9 | 0.58 | -8.5 | -1.0 | -1 | i | -3

Screening data as filed in PubChem.
